eIF4H FP inh: inhibitors of RNA binding by human eIF4H; Q15056; eIF4H fluorescence polarization binding assay; inhibition, % at 35 µM; 0.94% of 290,000 active; AID 2012;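 active means 50% or more with normal probe brightness, or confirmed in later tests; inconclusive means above 50% with abnormal brightness, or retests that disagree; inactive means below 50% or failed in later tests; about a fifth of its hits are not listed in these tables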;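 further: calls also rest on retests at 20 µM and on dose response follow-up; 0% = protein and probe with vehicle and 100% = probe without protein; strong numbers were not always called active; many hits fall short of the cut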
UUG fidelity: yeast start codon fidelity modulation; S. cerevisiae UUG-firefly luciferase reporter, luminescence/redox ratio; activity score, % at 18.7 µM; 0.13% of 350,000 active;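 active means replicate mean at a twofold rise or more, about +100% in these data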;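 further: firefly luciferase made from a UUG start codon reports start codon fidelity; reporter light over untreated wells divided by growth signal over untreated wells; some hits fall short of that in this replicate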
HIV Env fusion: inhibitors of HIV Env-mediated cell fusion. HeLa-JRFL Env/CEM21 cell fusion, luciferase. inhibition, % at 12.3 µM. 1.1% of 360,000 active;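 active means mean replicate inhibition score of at least 50 and every replicate individually at or above 50; inconclusive means only one of the two criteria met; inactive means mean below 50 and not all replicates reaching 50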;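 further: 0% = plate neutral controls and 100% = maraviroc near 300 nM; one replicate is shown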
PABP FP inh: PABP-poly(A) binding inhibition; 1% of 290,000 active; PABP-poly(A) RNA binding, fluorescence polarization; AID 2014; inhibition, % at 35 µM;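 active means 50% or more with normal probe brightness, or confirmed in later tests; inconclusive means above 50% with abnormal brightness, or retests that disagree; inactive means below 50% or failed in later tests; about a fifth of its hits are not listed in these tables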;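 further: calls also rest on retests at 20 µM and on dose response follow-up; controls were probe without protein and protein plus probe with vehicle; some compounds called inactive have numbers as strong as hits; many hits fall short of the cut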
Target sequence (P11940 whole entry, looked up): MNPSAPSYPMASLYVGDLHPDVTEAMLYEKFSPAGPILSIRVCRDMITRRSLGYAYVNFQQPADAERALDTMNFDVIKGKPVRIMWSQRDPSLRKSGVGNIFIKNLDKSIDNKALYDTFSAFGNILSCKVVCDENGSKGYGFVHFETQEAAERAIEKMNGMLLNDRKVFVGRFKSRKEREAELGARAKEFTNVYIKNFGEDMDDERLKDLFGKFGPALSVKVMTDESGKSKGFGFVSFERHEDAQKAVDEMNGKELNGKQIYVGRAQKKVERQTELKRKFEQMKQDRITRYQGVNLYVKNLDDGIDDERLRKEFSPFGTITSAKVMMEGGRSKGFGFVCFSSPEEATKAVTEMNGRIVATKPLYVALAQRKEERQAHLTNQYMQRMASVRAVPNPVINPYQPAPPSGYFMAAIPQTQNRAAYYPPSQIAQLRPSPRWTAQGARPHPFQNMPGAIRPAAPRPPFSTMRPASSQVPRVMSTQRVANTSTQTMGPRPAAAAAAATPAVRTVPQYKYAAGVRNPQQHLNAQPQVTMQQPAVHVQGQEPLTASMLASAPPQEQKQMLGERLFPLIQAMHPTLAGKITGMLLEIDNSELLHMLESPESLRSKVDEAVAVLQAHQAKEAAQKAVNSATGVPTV
Rce1 inh: inhibitors of yeast Ras-converting enzyme; Q03530; yeast membranes, quenched prenylated peptide cleavage fluorescence; calls only; 0.27% of 290,000 active;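 active means fall in fluorescence gain of 50% or more versus controls, with final raw signal at or below 3038400; inconclusive means same 50% fall but final raw signal above 3038400; inactive means fall in fluorescence gain under 50%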;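 further: plate controls were neutral control wells for no effect and wells lacking membranes for full effect; tested at 10 µM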
Target sequence (Q03530 whole entry, looked up): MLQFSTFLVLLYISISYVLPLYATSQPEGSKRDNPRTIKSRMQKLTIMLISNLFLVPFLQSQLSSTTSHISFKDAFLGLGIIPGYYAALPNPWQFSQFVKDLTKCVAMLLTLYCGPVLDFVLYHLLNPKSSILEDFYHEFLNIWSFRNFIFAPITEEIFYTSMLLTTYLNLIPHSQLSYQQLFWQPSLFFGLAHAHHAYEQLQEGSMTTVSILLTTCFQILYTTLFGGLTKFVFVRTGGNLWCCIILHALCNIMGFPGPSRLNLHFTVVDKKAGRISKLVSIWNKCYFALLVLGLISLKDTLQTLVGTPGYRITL
MT1-MMP act inh: blocks activation of human MT1-MMP. HT1080 RFP-PRO-GFP cells, GFP/RFP ratio fluorescence, overnight; percent of plate control window, DMSO zero. GFP/RFP ratio change, % at 20 µM. 0.061% of 360,000 active. AID 651647;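 active means GFP/RFP ratio change of at least 30% with cell ATP level not reduced by more than half and red fluorescence within 50% of control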; further: strong numbers were not always called active
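Material – HT1080 RFP-PRO-GFP cells · Control set – DMSO wells and RFP-L50D-GFP cells · Incubation – overnight cell settling, then overnight compound exposure, 37 °C, 5% CO2 · Compound dosing – single-point 20 µM compound, 1% DMSO · Read-out – GFP/RFP fluorescence ratio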
CSC inhib: blocks cancer stem cells; 1.1% of 300,000 active; inhibition, % at 7.5 µM; AID 2717; cancer stem cell-like cells viability, luminescence;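 active means mean at 75% or more and at least half the replicates too; inconclusive means mean and replicates disagree; tested in HMLE shEcad cells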;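 further: 0% = median of negative and 100% = median of positive control wells; the first replicate is given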
MT1-MMP act inh RFP: also measured in MT1-MMP act inh; calls as there; RFP signal change, %; measured here: RFP expression control read;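 0 = vehicle wells; hits needed this value within 50% of zero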
Numbers without * were called inactive; i = inactive; ? = inconclusive; . = not tested or not shown; & = joins results of further samples.

1	CC(C)CCNC(=O)NC(=O)COc1c(F)c(F)cc(F)c1F
2	O=C(NCc1ccc2c(c1)OCO2)c1ccccc1Cl
3	OCCNCCCOc1ccc(Cl)cc1Br
4	O=C1C2C(C(=O)N1c1ccccc1)N1CCCN1C2c1ccccc1 (centres undefined)
5	O=C1OC(c2ccc(O)cc2)(c2ccc(O)cc2)c2ccccc21

Compound	1	2	3	4	5
eIF4H FP inh	-6	.	4	-3	-6
UUG fidelity	1	-5	5	-8	2
HIV Env fusion	.	0	-20	-8	-47
PABP FP inh	-2	.	1	-2	-9
Rce1 inh	i	i	i	i	i
MT1-MMP act inh	3	3	-1	2	3
MT1-MMP act inh RFP	2	5	5	3	1
CSC inhib	0	-4	13	-4	5

6	O=C1CC(N2CCN(c3ccc(Cl)cc3)CC2)C(=O)N1c1ccc(F)cc1 (centres undefined)
7	COc1ccc(OC)c(C2CC(=O)Nc3c2c(=O)[nH]c2ncnn32)c1 (centres undefined)
8	COc1cccc(CNC(=O)C2CCN(S(=O)(=O)c3ccc(Br)s3)CC2)c1
9	CC1(c2nnc(-c3cccc(Cl)c3)o2)CC(c2ccc(Br)cc2)=NO1 (centres undefined)
10	Cc1ccc(CSc2nnc(CS(=O)Cc3ccc(Cl)cc3Cl)n2C)cc1 (centres undefined)

Compound	6	7	8	9	10
eIF4H FP inh	-6	2	7	.	-10
UUG fidelity	-15	.	-8	-22	1
HIV Env fusion	-8	-12	16	19	.
PABP FP inh	-4	-8	3	.	6
Rce1 inh	i	i	.	i	.
MT1-MMP act inh	5	-2	-3	0	-3
MT1-MMP act inh RFP	3	3	-6	3	-8
CSC inhib	-4	-2	-7	0	-3

11	O=C(N[C@@H](Cc1ccccc1)C(=O)OCc1ccccc1)c1nc[nH]c1C(=O)NC1CCNCC1
12	Brc1ccc(-c2csc(/N=C/N3CCOCC3)n2)cc1
13	CCOCCCNC(=S)N1CCCN(c2nc3cc(C)cc(C)c3cc2C#N)CC1
14	O=C(Nc1cccnc1Cl)c1cc(-c2ccccc2O)on1
15	CCCCn1c(N)c(N(CC)C(=O)c2cc(S(=O)(=O)N3CCN(CC)CC3)ccc2Cl)c(=O)[nH]c1=O

Compound	11	12	13	14	15
eIF4H FP inh	.	1	2	-2	-5
UUG fidelity	-6	2	.	-12	-10
HIV Env fusion	.	.	33	-57	7
PABP FP inh	.	-2	35	-6	-6
Rce1 inh	i	i	i	i	i
MT1-MMP act inh	0	1	1	2	-2
MT1-MMP act inh RFP	1	-10	-2	-1	-1
CSC inhib	-2	14	5	2	-6

Rewritten bar-delimited: part of the list above.
# | Structure | eIF4H FP inh | UUG fidelity | HIV Env fusion | PABP FP inh | Rce1 inh | MT1-MMP act inh | MT1-MMP act inh RFP | CSC inhib
13 | CCOCCCNC(=S)N1CCCN(c2nc3cc(C)cc(C)c3cc2C#N)CC1 | 2 | . | 33 | 35 | i | 1 | -2 | 5
14 | O=C(Nc1cccnc1Cl)c1cc(-c2ccccc2O)on1 | -2 | -12 | -57 | -6 | i | 2 | -1 | 2
15 | CCCCn1c(N)c(N(CC)C(=O)c2cc(S(=O)(=O)N3CCN(CC)CC3)ccc2Cl)c(=O)[nH]c1=O | -5 | -10 | 7 | -6 | i | -2 | -1 | -6

(more compounds)
16	CC(C)CC1(C(=O)NCc2cc(F)cc(C(F)(F)F)c2)C=CCN1C(=O)c1ccccc1 (centres undefined)
17	Cc1cccnc1NC(=O)c1ccc(OCc2c(C)noc2C)cc1
18	Cc1ccc(CNc2oc(C)nc2C#N)cc1
19	CCc1nc2ccccc2c(=O)n1NCCc1ccccc1
20	COc1ccc2oc(C(=O)NCCC(C)C)c(C)c2c1

Compound	16	17	18	19	20
eIF4H FP inh	-2	2	6	-14	-8
UUG fidelity	30	-3	-6	.	-22
HIV Env fusion	2	-16	-110	.	-33
PABP FP inh	8	-4	1	-2	3
Rce1 inh	i	i	i	i	i
MT1-MMP act inh	-1	3	0	8	-4
MT1-MMP act inh RFP	2	9	2	2	-2
CSC inhib	18	-20	-9	-7	4

21	CCCCc1ccc(NC(=O)CN2C(=O)C3CCCCC3C2=O)cc1 (centres undefined)
22	Cc1cc(-n2c(C)cc(C(=O)CN3C(=O)NC4(CCCCC4)C3=O)c2C)no1
23	C=CCNC(=S)NNC(=O)C(CCC(C)C)CC(C)(C)O (centres undefined)
24	COC(=O)[C@@H](NC(=O)Nc1ccc(S(N)(=O)=O)cc1)C(C)C
25	CC(C)Cc1nnc(NC(=O)C2CSC3(C)CCC(=O)N23)s1 (centres undefined)

Compound	21	22	23	24	25
eIF4H FP inh	.	-4	6	2	.
UUG fidelity	-3	-9	-33	.	-6
HIV Env fusion	0	.	.	.	8
PABP FP inh	.	8	4	-2	.
Rce1 inh	i	i	i	i	i
MT1-MMP act inh	4	-1	2	5	-5
MT1-MMP act inh RFP	5	-3	8	3	-1
CSC inhib	-4	-15	-30	-10	-17

26	CCOC(=O)CSc1nnc(CNC(=O)c2ccc([N+](=O)[O-])cc2)n1C
27	CCOC(=O)c1ccc(-n2c(N)c(C(=O)NCC3CCCO3)sc2=S)cc1 (centres undefined)
28	CC1CCc2c(C(=O)NCc3cccnc3)csc2C1 (centres undefined)
29	CCOC(=O)c1c(-c2ccc(C)cc2)csc1/N=C/N(C)C
30	CCOC(=O)CNC(=O)COc1coc(CN2CCN(c3ccccc3)CC2)cc1=O

Compound	26	27	28	29	30
eIF4H FP inh	6	-11	2	-11	1
UUG fidelity	-7	-12	-7	.	-8
HIV Env fusion	11	-40	-1	17	-2
PABP FP inh	-5	-1	3	2	2
Rce1 inh	i	i	.	.	i
MT1-MMP act inh	2	2	3	-4	2
MT1-MMP act inh RFP	4	2	2	0	0
CSC inhib	-12	-14	-9	-4	11

31	CCN(CC(=O)NC1CC1)S(=O)(=O)c1ccccc1
32	COC(=O)[C@H]1C2CCC(C(=O)OC)(CC2)[C@H]1C(=O)OC
33	COc1cc2c(cc1OC)CN(C(=O)c1ccc(-c3ccccc3)cc1)CC2
34	COc1cc2ccccc2cc1C(=O)N/N=C/c1cccs1
35	Cc1ccc(C(=O)NNC(=O)Cc2nc3nc(C)cc(C)n3n2)cc1

Compound	31	32	33	34	35
eIF4H FP inh	-6	-2	2	.	.
UUG fidelity	-16	.	-2	-9	-19
HIV Env fusion	4	7	-7	8	6
PABP FP inh	-2	-5	13	.	.
Rce1 inh	i	i	i	.	i
MT1-MMP act inh	-3	3	1	10	0
MT1-MMP act inh RFP	10	0	-1	-2	0
CSC inhib	4	-2	5	.	-6

36	CC1c2cccn2CCN1S(=O)(=O)c1ccccc1 (centres undefined)
37	Cc1oc(-c2cc(F)ccc2F)nc1CN1CCC(C(=O)N2CCOCC2)CC1
38	O=C1CC(N2CCN(S(=O)(=O)c3ccccc3)CC2)C(=O)N1c1ccccc1 (centres undefined)
39	CC(C)c1cc(C(=O)NCCc2ccccc2)no1
40	Cc1ccc([N+](=O)[O-])c(C(=O)N/N=C/c2cccnc2)c1

Compound	36	37	38	39	40
eIF4H FP inh	.	-10	1	0	-9
UUG fidelity	-6	-3	.	.	-13
HIV Env fusion	.	-13	4	-32	11
PABP FP inh	.	-6	-4	-7	-6
Rce1 inh	.	i	i	i	i
MT1-MMP act inh	-6	-1	-2	2	3
MT1-MMP act inh RFP	5	-1	1	7	4
CSC inhib	2	-9	-19	-4	-8

41	O=C(O)Cc1ccc(Nc2cnn(C34CC5CC(CC(CC(=O)O)(C5)C3)C4)c(=O)c2Cl)cc1
42	CN(C)C(=O)c1cc(F)ccc1Sc1cc(Cl)ccc1Cl
43	COc1cc2c(OC(C)=O)c3c(c(-c4ccc5c(c4)OCO5)c2cc1OC)C(=O)OC3
44	CCCCN1C(=O)CCC(C(=O)O)C1c1ccccc1 (centres undefined)
45	CN1CCN(NC(=O)Nc2cccc(F)c2)CC1

Compound	41	42	43	44	45
eIF4H FP inh	-4	-14	-2	2	-6
UUG fidelity	-10	12	-25	-22	-14
HIV Env fusion	9	.	.	-69	.
PABP FP inh	2	-10	10	8	-5
Rce1 inh	i	i	i	i	i
MT1-MMP act inh	-6	1	-9	0	3
MT1-MMP act inh RFP	0	1	-13	10	4
CSC inhib	-3	28	-5	-3	.

46	O=C(NCc1cccc(F)c1)c1ccc2nc(N3CCOCC3)sc2c1
47	O=[N+]([O-])c1ccccc1S(=O)(=O)Nc1cccc2cccnc12
48	Cn1ncc(Cl)c1C(=O)N1CCN(c2ccc(Cl)c(Cl)c2)CC1
49	O=C(Nc1ccccc1)NC1CS(=O)(=O)CC1O (centres undefined)
50	COCCCNCCCOc1ccc(Cl)cc1Br

Compound	46	47	48	49	50
eIF4H FP inh	-3	12	3	-5	-1
UUG fidelity	-8	.	1	-23	-9
HIV Env fusion	-37	27	16	-25	-49
PABP FP inh	-10	7	-2	6	0
Rce1 inh	i	i	i	i	i
MT1-MMP act inh	1	.	4	7	-2
MT1-MMP act inh RFP	-1	.	-5	7	2
CSC inhib	2	-6	14	-1	17

51	CCOC(=O)C1(Cc2ccccc2C)CCCN(Cc2cn(C)nc2C)C1 (centres undefined)
52	COc1ccc(C)cc1NC(=O)CN1C(=O)c2ccccc2S1(=O)=O
53	CCCCC1=CC2=C(c3ccco3)C(=O)C(C)(OC(=O)c3ccc(OC)cc3)C(=O)C2=CN1Cc1ccco1 (centres undefined)
54	COc1ccc(NS(=O)(=O)c2cc(NC(=O)/C=C/c3cc(OC)ccc3OC)ccc2N2CCCCC2)cc1
55	CC1(C)CNC(=O)c2sc(NC(=O)CN3CCOCC3)nc2C1

Compound	51	52	53	54	55
eIF4H FP inh	-2	-3	?	-12	-3
UUG fidelity	.	-10	-16	.	2
HIV Env fusion	9	1	.	.	-14
PABP FP inh	-5	2	?	25	-4
Rce1 inh	i	i	i	i	i
MT1-MMP act inh	0	-4	-21	1	13
MT1-MMP act inh RFP	2	2	5	-1	8
CSC inhib	-5	-9	-13	-2	-9

56	CC(C)C#Cc1ccc2c(c1)O[C@@H](CN(C)S(=O)(=O)c1cn(C)cn1)[C@@H](C)CN([C@H](C)CO)S2(=O)=O
57	CCc1ccc(C(O)c2ncc(-c3ccc(C)cc3)[nH]2)cc1 (centres undefined)
58	Cc1nc(CS(=O)(=O)c2ccc(Cl)cc2)sc1C(=O)O
59	CC(C)(C)N(CC(=O)NC1CCCCC1)C(=O)CS(=O)CC(=O)Nc1ccc(F)cc1 (centres undefined)
60	O=C(Nc1cc(Cl)cc(Cl)c1)C(NCCCO)c1ccccc1 (centres undefined)
61	CN(C)S(=O)(=O)c1cccc(NC(=O)Cc2ccsc2)c1
62	O=C(CSc1nc(N2CCOCC2)nc(N2CCOCC2)n1)Nc1ccc(Cl)cc1Cl
63	Cc1ccc(C(=O)Nc2nc(C(C)(C)C)cs2)s1

Compound	56	57	58	59	60	61	62	63
eIF4H FP inh	.	.	4	-8	-5	-6	-6	-11
UUG fidelity	-24&2	-22	.	1	.	-3	4	-17
HIV Env fusion	5	28	-28	5	.	3	23	.
PABP FP inh	.	.	3	-1	-2	-1	1	-12
Rce1 inh	.	.	i	i	i	.	i	i
MT1-MMP act inh	-1	1	-3	5	.	-1	-2	-46
MT1-MMP act inh RFP	1	-1	-2	6	.	-2	4	-43
CSC inhib	.	.	-14	-11	-9	-3	8	17

Screening data deposited in PubChem BioAssay by several laboratories.
